MgrA-DNA mod: alters Staphylococcus aureus MgrA binding to DNA; fluorescence polarization; hit rate 0.13% among 84,000; inhibition, %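 (about 10 µg/mL by stock and volumes)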;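 active means above 50% in either of two replicates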;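 further: 0% = protein plus DNA without compound and 100% = DNA alone without protein; higher means less MgrA bound to DNA so lower polarization; one replicate is shown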
Sa helicase inh: blocks Staphylococcus aureus DNA helicase; purified S. aureus helicase, fluorescence unwinding assay; about half of the hits fall short of the stated cut; inhibition, %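 (tested at about 80 µM)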; hit rate 0.05% among 120,000; AID 485395;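 active means both duplicates at 50% or more, or one of them with a favoured structure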;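 further: 0% = mean of negative control wells and 100% = mean of positive control wells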
Numbers without * were called inactive; . = no result given; & = joins results of further samples.

SMILES	MgrA-DNA mod	Sa helicase inh
CCCNC(=O)c1ccc2c(=O)n3nc(Nc4ccccc4CC)sc3nc2c1	.	4.0
CCOC(=O)C1(C/C(C)=N/NC(N)=S)CC(C)(C)OC1=O (stereo not drawn)	.	13.0
CCOC(=O)C1=C(CC)Nc2ccccc2N=C1NC(=O)c1ccc(=O)n(C)n1	.	15.0
O=c1cc(C2CCN(C(=S)Nc3cccc(Cl)c3)CC2)[nH]n1-c1ccccc1	-1.6	6.0
O=C(NC1CCSC1)c1cccc(Cl)c1 (stereo not drawn)	-1.9	.
O=C(Nc1cccc(Cl)c1)Nc1ccccn1	0.5	1.0
O=C(CN(C(=O)c1ccc(Cl)nc1)C1CCCC1)NCc1ccc2c(c1)OCO2	-0.2	0.0
CC1CCN(C(=O)c2ccc3c(=O)nc4c(-c5ccccc5)n[nH]n4c3c2)CC1	-1.9	-2.0
OCc1nc2cc3ccccc3cc2[nH]1	1.1	-5.0
CCOC(=O)N(c1ccc(OC)cc1)S(=O)(=O)c1ccccc1	2.5	1.0
O=C(O)CCCN1C(=O)c2cccnc2Oc2ccc(Cl)cc21	.	-14.0
Cc1cc(C(=O)Cn2ncc(Cl)c(Cl)c2=O)c(C)n1-c1ccc2c(c1)OCCO2	.	-12.0
Cc1cccc(Oc2nc3c4c(C)c(C)oc4ncn3n2)c1	.	-26.0
COC(=O)c1cc2oc(C)cc2n1Cc1nc(-c2ccc(C)cc2)oc1C	.	13.0
Cc1cccc(N2CCN(S(=O)(=O)c3ccc(Cl)nc3)CC2C)c1 (stereo not drawn)	.	-10.0
COc1ccc2c(c1OC)CN(C)CCc1cc3c(cc1C(O)C2)OCO3 (stereo not drawn)	-1.8	8.0
Nc1cccc2c1C(=O)N(c1ccccc1)C2=O	.	-13.0
CCCNC(=O)N1CCN(CC)CC1	-1.6	3.0
CCOc1ccc(S(=O)(=O)/N=C2/C=C(Sc3ncn[nH]3)C(=O)c3ccccc32)cc1	.	-106.0
CCCNC(=O)C(C)n1nc(-c2ccccc2)c2cc(Cl)ccc21 (stereo not drawn)	.	4.0
CCn1c2ccccc2c2cc(CO)ccc21	-3.3	5.0
CCOC(=O)C1=C(C)NC(C)=C(C(=O)OC)C1c1cccc([N+](=O)[O-])c1 (stereo not drawn)	-0.3&-4.3	.
CC1=Nc2ccccc2Sc2c1c(=O)n(-c1ccccc1)c1ccccc21	1.7	13.0
N#Cc1ccc(OC(=O)c2ccc(Br)o2)cc1	.	16.0
O=C(CCc1ccccc1)Nc1nnc(-c2ccccc2)o1	.	-15.0
O=C(CNC(=O)c1ccccc1)OC1CCCCC1	.	8.0
NC1=NN(c2cccc(C(=O)O)c2)C(=O)C1	-1.5	18.0
O=C(Nc1ccc2c(c1)CCC2)C1CCCO1 (stereo not drawn)	0.0	6.0
O=C(CSc1nc2ccccc2o1)NC1CC1	0.7	-7.0
CC(C)Oc1cc(C(F)(F)F)nc2ccc(CSCCO)cc12	4.8	.
CN(C(=O)CN1CCc2ccccc2C1)c1c(N)n(Cc2ccccc2)c(=O)[nH]c1=O	.	-3.0
Cc1onc(-c2c(Cl)cccc2Cl)c1NC(=O)N1CCSCC1	0.1	.
CC(C)(C)c1cc(O)c(O)c(Br)c1	3.8	3.0
Cc1c(C#N)c(Sc2ccccc2)nc2ccccc12	-1.3	.
CC(C)(C)NNC(=S)Nc1ccc(Cl)c(Cl)c1	-0.2	.
COc1cccc(NC(=S)Nc2cccc(O)c2)c1	1.6	.
Nc1ccc(O)c2c1C(=O)c1c(N)ccc(O)c1C2=O	2.8	.
CCC(C)OC(=O)C1CC=CCC1C(=O)Nc1cccc(Br)c1 (stereo not drawn)	-1.8	11.0
Cc1cccc(N2CCN(C(=O)CCCN3C(=O)COc4ccc(C)cc43)CC2C)c1 (stereo not drawn)	.	-28.0
O=C(Cc1cccs1)NCCCc1ccccc1	4.6	4.0
O=C(NCCN1CCOCC1)c1nn2c(C(F)(F)F)cc(-c3ccc(Cl)cc3)nc2c1Cl	-2.4	.
CCCCn1c(SCCO)nc2c(c1=O)C1(CCCC1)Cc1ccccc1-2	.	-10.0
S=c1[nH]c2c(Cl)cc(Cl)cc2o1	.	-4.0
C=CCn1c(=O)[nH]c2cc(C(=O)N3CC=C(c4ccccc4)CC3)ccc2c1=O	.	10.0
Cc1ccc(-n2nc3c4nonc4ccc3[n+]2[O-])cc1	5.5	4.0

Ordered by molecular weight (descending): part of the list above.
SMILES	MgrA-DNA mod	Sa helicase inh
CCCCn1c(SCCO)nc2c(c1=O)C1(CCCC1)Cc1ccccc1-2	.	-10.0
CC(C)(C)NNC(=S)Nc1ccc(Cl)c(Cl)c1	-0.2	.
O=C(Cc1cccs1)NCCCc1ccccc1	4.6	4.0
S=c1[nH]c2c(Cl)cc(Cl)cc2o1	.	-4.0

(continued)
SMILES	MgrA-DNA mod	Sa helicase inh
Cc1ccc2cc(CCNC(=O)Cc3ccccc3)c(=O)[nH]c2c1	1.1	4.0
Nc1ccc2nc(SCC(=O)c3ccccc3)sc2c1	.	11.0
CCOC(=O)c1[nH]c(COC(=O)C(NS(=O)(=O)c2ccc(Cl)cc2)C(C)O)c(C(=O)OCC)c1C (stereo not drawn)	.	-15.0
O=C1CNC(=O)C2(c3ccccc3)CCCN12 (stereo not drawn)	.	-5.0
CS(=O)c1ccc(-c2nc(-c3ccc(F)cc3)c(-c3ccncc3)[nH]2)cc1 (stereo not drawn)	-0.6	.
Clc1ccccc1-c1csc(-c2ccncc2)n1	-1.1	.
Cc1ccc(Sc2ncccc2C(=O)NCc2ccco2)cc1	.	-14.0
c1ccc2c(c1)OCC(c1nn3cnnc3s1)O2 (stereo not drawn)	.	-17.0
O=C(CBr)C12CC3CC(CC(C3)C1)C2	-0.9	27.0
Cc1cc(Cl)ccc1NCN1C(=O)CCC1=O	2.5	.
O=C(c1ccccc1Cl)c1nccn1Cc1ccc(Cl)cc1	-2.0	.
CCN1C(=O)/C(=C2/Sc3ccc(OC)cc3N2C)SC1=Nc1cccc(O)c1	2.2	-6.0
CCN(C(=O)C(C)C)c1ccccc1	-4.1	1.0
CC12CCC(c3c(C(=O)O)nn(-c4ccccc4)c31)C2(C)C (stereo not drawn)	1.4	-7.0
Cc1onc(-c2ccccc2)c1C(=O)NC1CC1	.	15.0
CC1=CC(=C(C#N)C#N)c2ccccc2N1C	.	-8.0
CCOc1ccc(NC(=O)c2ccc(NC(=O)CSc3nnc(C)n3C3CC3)cc2)cc1	.	23.0
CCn1c(=N)n(CC(O)c2ccccc2)c2ccccc21 (stereo not drawn)	.	-8.0
O/N=C/c1ccc(N2CCOCC2)s1	.	-8.0
Cc1ccc(C)c(OCCC(=O)Nc2ccc3c(c2)OCO3)c1	.	0.0
c1ccc2c(c1)OCC(CNc1ncnc3c1oc1ccccc13)O2 (stereo not drawn)	.	20.0
CCOC(=O)C(Nc1cccc(F)c1)c1ccccc1 (stereo not drawn)	.	10.0
COc1cc(CNCc2cccnc2)ccc1OCc1ccccc1	-1.0	-5.0
Cc1onc(-c2c(Cl)cccc2Cl)c1C(=O)NN1CCCCC1	-0.8	.
Cc1ccc(-c2nnco2)cc1	.	-12.0
COc1cc(/C=N/NC(N)=S)ccc1OCC(=O)N1CCOCC1	2.5	-5.0
COC(=O)c1cncc(C(=O)OC)c1	.	-42.0
Cc1cc2nsnc2cc1Cl	-0.6	.
COc1ccc(/C=C/C(=O)NC(=O)c2ccccc2OCC(=O)c2ccc(Br)cc2)cc1	-2.0	-1.0
Clc1cc(Br)ccc1N=Cc1ccc2c(c1)OCO2	-1.5	.

Laid out differently: 6 of the compounds above
compound | MgrA-DNA mod | Sa helicase inh
Cc1cc2nsnc2cc1Cl | -0.6 | .
Clc1cc(Br)ccc1N=Cc1ccc2c(c1)OCO2 | -1.5 | .
COc1ccc(/C=C/C(=O)NC(=O)c2ccccc2OCC(=O)c2ccc(Br)cc2)cc1 | -2.0 | -1.0
CCn1c(=N)n(CC(O)c2ccccc2)c2ccccc21 (stereo not drawn) | . | -8.0
O/N=C/c1ccc(N2CCOCC2)s1 | . | -8.0
CC1=CC(=C(C#N)C#N)c2ccccc2N1C | . | -8.0

(more compounds)
SMILES	MgrA-DNA mod	Sa helicase inh
COc1ccc(C2Oc3ccc(Cl)cc3C=C2[N+](=O)[O-])cc1 (stereo not drawn)	-2.0	.
CCOc1ccc(CNC(=O)c2cc3oc4ccccc4c3n2CC)cc1	.	7.0
CCOC(=O)c1ccc(CNC(=O)C(Cc2ccccc2)N2Cc3ccccc3C2=O)cc1 (stereo not drawn)	.	9.0
O=C(OC(C(=O)NCc1cccs1)c1ccccn1)c1cccs1 (stereo not drawn)	-23.0	3.0
CC(C)(C)C(=O)COC(=O)c1ccc(Cl)cc1N	-5.0	-13.0
COC(=O)c1sccc1NC(=O)c1ccccc1	1.1	.
Cc1ccc(N=C2NC(=O)C(Cc3ccccc3)S2)cc1 (stereo not drawn)	1.8	.
O/N=C\c1c2ccccc2c(Sc2ccc(Cl)cc2)c2ccccc12	5.6	.
O=C(O)c1ccc2c(c1)C(=O)NC2=O	-3.2	6.0
COc1ccc(C2C(C(=O)Nc3cc(C)c(Cl)cc3OC)c3ccccc3C(=O)N2C)cc1 (stereo not drawn)	2.5	-3.0
COC(=O)C(CC(C)C)NC(=O)c1cccs1 (stereo not drawn)	.	8.0
CS(=O)(=O)Cc1c(Cl)cccc1Cl	-2.5	.
Cc1ccc(C(=O)CCN2CCOCC2)cc1	-3.5	.
NNC(=O)c1cc2ccccc2[nH]1	-0.8	5.0
COc1ccc(-c2nc(N)sc2-c2ccccc2)cc1	.	16.0
O=C1N(c2cccc(Cl)c2)C(=Nc2cccc(Cl)c2)SC12CC2	-1.1	.
Cc1nc(SCC(=O)N2CCCc3ccccc32)c2c(=O)n(C)c(=O)n(C)c2n1	.	-4.0
N#Cc1c(NC(NC(=O)c2ccco2)(C(F)(F)F)C(F)(F)F)sc2c1CCCCC2	.	-8.0
COc1cccc(OCC(=O)Oc2ccc(Br)cc2)c1	1.1	28.0
COc1ccccc1C(C)NCC(=O)Nc1cc(C)on1 (stereo not drawn)	.	-5.0
COc1ccc(C(C)=O)cc1CSc1ccccn1	-1.1	.
NC(=O)C1CCCCC1C(=O)O (stereo not drawn)	-0.9	.
O=C(c1cccs1)n1ccc(C(F)(F)F)n1	1.5	.
Cc1nc2cc(C(=O)NCCN3CCOCC3)ccc2n1-c1ccc(F)cc1F	.	-2.0
Cc1cc(=S)cc(-c2ccccc2)n1CCN1CCOCC1	.	2.0
CC1CC1c1ccc(/C=C/C(=O)O)o1 (stereo not drawn)	.	0.0
CCc1nc2ccccc2c(C(=O)OCC#N)c1C	.	-9.0
CN(CC(=O)NC1=NCCS1)S(=O)(=O)c1ccc(Cl)cc1	.	-9.0
Cc1onc(-c2c(Cl)cccc2Cl)c1NC(=O)NC1CCSC1 (stereo not drawn)	-0.6	.
CCCn1c(SCc2nc(N)nc(Nc3ccccc3C)n2)nnc1-c1ccncc1	.	4.0
COc1cc(OC)cc(-c2nc3ccccc3c(=O)n2OC(=O)c2ccccc2Cl)c1	3.0	15.0
CSC(N)=Nc1c(Cl)cccc1Cl	-1.2	.
COc1ccccc1C1CC(c2c(-c3ccccc3)c3cc(Br)ccc3[nH]c2=O)=NN1C(=O)CCC(=O)O (stereo not drawn)	-1.9	.
CN(/N=C/c1cc(Cl)cc(Cl)c1O)C(=S)NC(C)(C)C	3.5	.
CN(C)c1ccc(/C=N/NC(=O)Cc2ccccc2)cc1	.	6.0
CN(C)S(=O)(=O)c1ccc(C(=O)N2CCCC2c2nc3ccccc3s2)cc1 (stereo not drawn)	.	-16.0
FC(F)(F)c1cc(C(F)(F)F)c2c(n1)[nH]c1ccccc12	.	-14.0
Cn1c(=O)n(-c2cccc(Cl)c2)c(=O)n1C	1.4	4.0
O=C(CSc1nnc(-c2ccco2)o1)NCCCN1CCCC1=O	.	6.0
O=C(CN1C(=O)/C(=C/c2ccccc2F)Sc2ccccc21)N1CCN(c2ccc(F)cc2)CC1	0.1	10.0
NNC(=O)c1c(-c2ccccc2)c(-c2ccccc2)nn2nnnc12	.	-6.0
CC(=O)OC1COC(NC(=S)Oc2ccccc2)C(OC(C)=O)C1OC(C)=O (stereo not drawn)	-1.9	10.0
CC(=O)Nc1nc(C(C)(C)C)cs1	.	-5.0
CCNC(=S)NCc1ccc2[nH]c(C)cc2c1	.	29.0
O=C(CN1C(=O)c2ccccc2C1=O)OC1CCOC1=O (stereo not drawn)	.	7.0
CCN(CC)C(=O)C1(S(=O)(=O)c2ccc(Cl)cc2)CC1	.	19.0
C=CCNC(=S)NNc1ccccc1Cl	.	22.0
COc1ccc(NC(=O)COC(=O)C2CCCCC2)cc1	.	-8.0
Cc1ccc(Sc2c(C)nn(C(=O)CNS(=O)(=O)c3ccccc3)c2C)cc1	.	-2.0
O=C(CSc1nc2ccccc2c(=O)n1CCCN1CCOCC1)c1ccccc1	.	-5.0
O=C1CN=C(Nc2cccc(C(F)(F)F)c2)N1C1CCCC1	-1.8	-17.0
COCC(C)n1c(SCC(=O)c2ccc[nH]2)nc2ccccc2c1=O (stereo not drawn)	.	3.0
O=C(CCC(=O)N1CCN(c2ccc(F)cc2)CC1)c1ccccc1	3.0	11.0
O=C(NCc1nnc(SCC(=O)N2CCCC2)o1)c1c(F)cccc1Cl	0.3	8.0
CC(C)N(C(=O)CSc1ccc(Cl)c(Cl)c1)C(C)C	1.8	.
COC(=O)c1ccc(COC(=O)c2cccc(C(F)(F)F)c2)cc1	-1.2	-3.0
N#Cc1nc2c(C#N)c(N)n(Cc3ccco3)c2nc1C#N	1.5	4.0
Cc1cccc(C)c1N(C)C(=O)c1cnccc1C(F)(F)F	.	-45.0
Cc1csc2c(N3CCSCC3)ncnc12	1.4	.
N#C/C(=C\c1ccc(-c2ccc(S(=O)(=O)N3CCOCC3)cc2)o1)S(=O)(=O)c1ccc(Br)cc1	.	-21.0
CSc1ccccc1S(=O)(=O)C(C)(C)C	-0.6	14.0

Bioassay records deposited in PubChem by ICCB-Longwood Screening Facility, Harvard Medical School.

Only part of the results is shown (hit frequency here may not be typical).
